Screening data from PubChem.
miR-21 FLuc: raises the signal of a miR-21 reporter. AID 2288. 340,000 tested, under 10 active. HeLa miR-21 FLuc reporter, luciferase, 48 h. Potency, µM (top dose mostly 38.3 µM), inactives show at the highest dose reporter change, positive = more light; active = well fitted rising curve with a large enough effect; inconclusive = small, poorly fitted or top-dose-only effect; inactive = no such curve, though single readings can be large or run the other way;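 also: % of control where 0% means no effect; miR-21 action dims this reporter so a rising signal means less miR-21 action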
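HeLa miR-21-FLuc reporter line, endogenous miR-21; 2000 cells/well in DMEM/10% FBS; compound titration up to ~40uM final, 48 h, 37 degree Celsius; luciferase detection reagent, 15 min lysis, CCD luminescence.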
* marks the source's active call; other numbers are inactive results; ? = inconclusive.

SMILES	miR-21 FLuc
CN(C(=O)Nc1cn(C)c(=O)c2ccccc12)c1ccccc1	-1%
COc1ccc(Cl)cc1NC(=O)CCC(=O)c1ccc(C)cc1	-6%
Cc1ccc2c(C)c(C(=O)N3CCC(c4nc5ccccc5s4)CC3)oc2c1C	3%
COc1cccc(CSc2nc(-c3ccccc3F)nc3c2Cc2c(CO)cnc(C)c2O3)c1	-1%
CCOC(=O)c1ccc(NC(=O)N2CCOc3ccccc32)cc1	-1%
CC(=O)c1cccc(NC(=O)c2sc3nc4c(cc3c2N)CCCC4)c1	-44%
CCOc1ccccc1NC(=O)C1=C(C)Nc2ncnn2C1c1ccccn1 (stereo not drawn)	-3%
Cc1ccc(CNS(=O)(=O)c2cnc(N)nc2)cc1	-3%
COc1ccc(C)cc1NC(=O)C1CCN(S(=O)(=O)c2ccc3[nH]c4c(c3c2)CCCCC4)CC1	3%
COc1ccc(-c2noc(Cn3c(=O)c4ccccc4n(CC(=O)Nc4cccc(C(F)(F)F)c4)c3=O)n2)cc1	?
COc1cccc(CNC(=O)c2ccc(-c3nc(CSc4ccccc4)c(C)o3)cc2)c1	0%
COc1ccc(NC(=O)c2cnn(-c3ccc(F)cc3F)c2C2CCN(C(=O)OC(C)(C)C)CC2)cc1Cl	26%
COc1ccc(CCNC(=O)c2ccc3c(c2)N(Cc2ccccc2)C(=O)c2ccccc2S3=O)cc1OC (stereo not drawn)	16%
COc1ccc(-c2csc(-c3c(N)c(C(=O)c4ccccc4)n4ccccc34)n2)cc1OC	-7%
O=C(Nc1ccc(Br)cc1F)C1CCN(c2nc3ccccc3[nH]2)CC1	2%
CCCCN(CC)CCCNC(=O)c1cc2c(=O)oc3ccc(C)cc3c2s1	0%
CCc1cccc(-n2c(C)nc3c(cnn3-c3ccc(Cl)cc3)c2=O)c1	12%
O=C(Nc1ccccc1C(=O)OCc1cc(=O)n2nc(C3CC3)sc2n1)c1ccc(Cl)cc1	2%
CCc1ccc2c(c1)c(=O)c(S(=O)(=O)c1ccc(F)cc1)cn2CC(=O)Nc1ccccc1OC	-2%
Cc1cc(C)c(S(=O)(=O)N2CCC(N3CCN(Cc4ccc(F)cc4)C(=O)C3=O)CC2)c(C)c1	3%
COc1cccc(CN(C(=O)c2ccc(C(C)(C)C)cc2)C2CCS(=O)(=O)C2)c1 (stereo not drawn)	-9%
Cc1noc(Cn2c(=O)c3cc4c(cc3n(CC(=O)Nc3ccccc3Br)c2=O)OCO4)n1	1%
COc1ccc(NCc2ccccc2-c2nnc(-c3ccccc3)o2)cc1Cl	-27%
COc1ccc(Cl)cc1NC(=O)CSc1cn(CC(=O)N2CCCC2)c2ccccc12	?

Entries from the list above with bromine:
SMILES	miR-21 FLuc
O=C(Nc1ccc(Br)cc1F)C1CCN(c2nc3ccccc3[nH]2)CC1	2%
Cc1noc(Cn2c(=O)c3cc4c(cc3n(CC(=O)Nc3ccccc3Br)c2=O)OCO4)n1	1%

Back to the main list, starting 4 compounds before the break.
SMILES	miR-21 FLuc
COc1cccc(CN(C(=O)c2ccc(C(C)(C)C)cc2)C2CCS(=O)(=O)C2)c1 (stereo not drawn)	-9%
Cc1noc(Cn2c(=O)c3cc4c(cc3n(CC(=O)Nc3ccccc3Br)c2=O)OCO4)n1	1%
COc1ccc(NCc2ccccc2-c2nnc(-c3ccccc3)o2)cc1Cl	-27%
COc1ccc(Cl)cc1NC(=O)CSc1cn(CC(=O)N2CCCC2)c2ccccc12	?
CCOc1cccc2sc(N3CCN(C(=O)c4ccco4)CC3)nc12	-4%
CSc1ccc(Nc2nn(-c3ccc(OC(F)(F)F)cc3)nc2C(C)=O)cc1	3%
CN(C(=O)CSc1nc2ccc(NC(=O)c3ccc(F)cc3)cc2s1)c1ccccc1	?
Cc1sc(-c2cc3ccccc3oc2=O)nc1-c1ccc(Cl)cc1	-4%
Cc1sc(-c2cc3ccccc3oc2=O)nc1-c1ccc(Cl)c(Cl)c1	-3%
Cc1cccc(-c2c3c(=O)n(C)c(=O)n(C)c3cn2-c2cc(N)c(Cl)cc2Cl)c1	?
Cc1ccccc1Oc1nc2ccccn2c(=O)c1/C=C(\C#N)c1nc2ccccc2[nH]1	-10%
COc1ccc(N2CCN(C(=O)CCc3c(C)nn(-c4ccc(N5CCCC5)nn4)c3C)CC2)cc1	5%
COc1cc(-c2nc3ccc(Cl)cn3c2Nc2ccc3c(c2)OCCO3)ccc1O	6%
COc1ccc(CCNC(=O)CCn2c(=O)c3ccccc3n(Cc3ccc(Cl)cc3)c2=O)cc1OC	-7%
Cc1ccc(CNC(=O)CSc2ncc(S(=O)(=O)c3ccc(C)c(Cl)c3)c(=O)[nH]2)cc1	-1%
CC(CC(=O)NCc1ccc(Cl)cc1Cl)CC1=NS(=O)(=O)c2ccccc2N1 (stereo not drawn)	23%
CC(C)C1N=C2c3ccccc3N=C(SCC(=O)NCc3ccccc3Cl)N2C1=O (stereo not drawn)	0%
CC1=C(c2ccc(C)c(C)c2)S(=O)(=O)N=C1N1CCC(C(=O)NCc2ccc(Cl)cc2)CC1	15%
CCOC(=O)c1c(NC(=O)c2cc3ccccc3c(=O)o2)sc2c1CCC(C)C2 (stereo not drawn)	1%
CCOc1ccc(C2c3[nH]c4ccccc4c3CCN2C(=O)CCc2ccccc2)cc1 (stereo not drawn)	-6%
COc1ccc(Cl)cc1NC(=O)c1ccc2c(c1)CCCN2S(C)(=O)=O	-23%
COc1ccc(OC)c(CNC(=O)CSc2c3c(nc4cc(Cl)ccc24)CCCC3)c1	13%
Cc1ccc(C(=O)Nc2cc(-c3nc4cc(Cl)ccc4o3)ccc2C)c(C)c1	-22%
COc1ccc(-c2cn3c(n2)sc2cc(C(=O)Nc4c(C)cccc4C)ccc23)cc1	6%
CCC(C)OC(=O)/C(C#N)=C\c1ccc(-c2cccc(C(F)(F)F)c2)o1 (stereo not drawn)	1%
O=C(CSc1ncc(-c2ccccc2)[nH]1)Nc1cccc(C(F)(F)F)c1	-10%
Cc1c(CCC(=O)NCCc2ccccc2)c(=O)oc2cc(O)ccc12	-12%
CCCn1c(CCC(=O)Nc2cc(C(=O)OC)cc(C(=O)OC)c2)nc2cccnc21	-1%

The closing 6 compounds of the part above lead into the next:
SMILES	miR-21 FLuc
Cc1ccc(C(=O)Nc2cc(-c3nc4cc(Cl)ccc4o3)ccc2C)c(C)c1	-22%
COc1ccc(-c2cn3c(n2)sc2cc(C(=O)Nc4c(C)cccc4C)ccc23)cc1	6%
CCC(C)OC(=O)/C(C#N)=C\c1ccc(-c2cccc(C(F)(F)F)c2)o1 (stereo not drawn)	1%
O=C(CSc1ncc(-c2ccccc2)[nH]1)Nc1cccc(C(F)(F)F)c1	-10%
Cc1c(CCC(=O)NCCc2ccccc2)c(=O)oc2cc(O)ccc12	-12%
CCCn1c(CCC(=O)Nc2cc(C(=O)OC)cc(C(=O)OC)c2)nc2cccnc21	-1%
CCc1ccc2nc(N3CCN(C(=O)C4CC4)CC3)sc2c1	-46%
Cc1c(Cl)cccc1NC(=O)CSc1cc(-c2ccccc2)ncn1	10%
COc1ccc(S(=O)(=O)N2CCC(n3c(C)nc4cccnc43)CC2)cc1Cl	-3%
CCN(CC)S(=O)(=O)c1ccc2c(c1)N(CC(=O)Nc1cccc(C#N)c1)C(=O)CO2	-7%
COc1ccc(C2CC(=O)c3c([nH]c(C(=O)OC4CCCCCC4)c3C)C2)cc1OC (stereo not drawn)	19%
O=C(COc1ccccc1F)Nc1ccc(-c2nc3ccccc3s2)cc1	-67%
CC(=O)N1CCCc2cc(S(=O)(=O)Nc3ccc(Cl)cc3F)ccc21	?
COc1ccccc1NC(=O)C1=C(C)Nc2nc(SCC(=O)c3ccc(C)cc3)nn2C1c1ccccc1C (stereo not drawn)	-1%
CCc1ccc(-n2c(=O)c3c4c(sc3n(Cc3ccc(F)cc3)c2=O)CCCC4)cc1	0%
Cc1ccccc1OCCCn1c(CCNC(=O)C2CCCCC2)nc2ccccc21	27%
CCOc1ccc(NC(=O)c2cc3c(=O)n(Cc4cccs4)ccc3nc2C)cc1	-13%
O=c1c(N2CCc3ccccc3C2)csc2ccccc12	-40%
CCOc1ccc(CNC(=O)c2cc3ccccn3n2)cc1OC	-13%
C[C@@H](NC(=O)CN(c1ccccc1)S(=O)(=O)N(C)C)c1ccccc1	0%
COc1ccccc1CNc1nc2nc(C)c(Cl)c(C)n2n1	2%
COCCNC(=O)c1nn(-c2ccc(C)cc2)c(=O)c2c1c1ccccc1n2C	0%
Cc1ccc(NC(=O)Cn2c(=O)ccc3cc(S(=O)(=O)N4CCC(C)CC4)ccc32)cc1Cl	4%
COc1ccc(CCNC(=O)c2c(O)nc3c(C)cccn3c2=O)cc1OC	-2%
O=S(=O)(c1ccc(Cl)cc1)c1nnn2c1nc(NC1CCCCC1)c1sccc12	-30%
COc1ccccc1NC(=O)C1=C(C)Nc2ncnn2C1c1ccccn1 (stereo not drawn)	-1%
CCn1cc(C(=O)NCc2ccc(F)cc2)c(=O)c2cc(S(=O)(=O)N(C)C)ccc21	-14%
COc1ccc(-n2ccn(CC(=O)Nc3ccc(C)cc3C)c(=O)c2=O)cc1	5%
O=C(CSc1ncc(CO)n1Cc1ccccc1)Nc1nc2ccccc2s1	11%
CCOC(=O)c1ccc(NC(=O)CSc2nnc3c4ccccc4n(CC)c3n2)cc1	-5%
COCCn1c(SCC(=O)c2ccc(F)cc2)nc2cc(C(=O)NC3CCCC3)ccc2c1=O	1%
Cc1ccc(C)c(S(=O)(=O)c2cn(C)c3cc(N4CCCCC4C)c(F)cc3c2=O)c1 (stereo not drawn)	1%
COc1ccc(NC(=O)CN2C(=O)C3(SCC(=O)N3c3cccc(OC)c3)c3ccccc32)cc1 (stereo not drawn)	5%
CCn1cc(C(=O)NCCc2ccc(C)cc2)c(=O)c2cc(S(=O)(=O)N3CCC(C)CC3)ccc21	-3%
Cc1c(CC(=O)N2CCCCC2)c(=O)oc2cc3occ(C(C)(C)C)c3cc12	-3%
COc1ccc(C2C=C(c3ccccc3)Nc3nc(NS(=O)(=O)c4ccc(C)cc4)nn32)cc1 (stereo not drawn)	-12%
COc1ccc(CCNc2nccn(-c3ccc(C)c(C)c3)c2=O)cc1OC	2%
Cc1ccc(NC(=O)Cn2cc(C(=O)c3ccco3)c3ccccc32)cc1	9%
O=C(NCc1ccc(F)cc1)c1ccc(CS(=O)(=O)c2ccc(Cl)cc2)o1	20%
COc1ccccc1C1C=C(c2ccc(Cl)cc2)Nc2nc(-c3ccc(Cl)cc3)nn21 (stereo not drawn)	?
CC(C)CC1N=C2c3ccccc3N=C(SCC(=O)NCCc3ccc(Cl)cc3)N2C1=O (stereo not drawn)	3%
COc1ccc(CCNC(=O)c2ccc3c(c2)N(Cc2c(F)cccc2Cl)C(=O)CS3)cc1OC	?
COc1ccc(CCNc2ncnc3c2cnn3-c2cccc(Cl)c2)cc1	-3%
Clc1ccccc1CSc1nnc(C2CCNCC2)o1	-9%
COc1ccc(Cn2cc(C(=O)c3ccc(C)c(C)c3)c(=O)c3ccccc32)cc1	16%
Cc1cccc(NC(=O)CSc2nnc(N)s2)c1	-9%
Cc1cccc(OCC(=O)Nc2nc3c(s2)CC(C(C)(C)C)CC3)c1C (stereo not drawn)	1%
COc1ccc(OC)c(CCNC(=O)c2cnn(-c3ccccc3)c2-n2cccc2)c1	?
O=C(Nc1nnc(N2CCCCCC2)s1)Nc1cc(F)ccc1F	3%
COc1ccc(-c2nc(Cn3c(SCc4cccc(F)c4)nc4cccnc43)c(C)o2)cc1	4%
COc1ccc2cc(CNc3ccc(OC)c(OC)c3)c(=O)n(CC(=O)Nc3ccc(C)cc3)c2c1	-8%
COc1ccccc1Nc1c2c(nc3ccc(NC(=O)/C=C/c4cccc(OC)c4OC)cc13)CCCC2	4%
COc1cccc(-n2c(=O)c3c(C)c(C(=O)N(C)C)sc3n(Cc3ccc(F)cc3Cl)c2=O)c1	-9%
O=C(Cn1c(=O)nc(-c2ccccc2)c2cc(Cl)ccc21)N1CCN(c2ccccc2F)CC1	-3%
Cc1ccc(F)c(NC(=S)Nc2cccc3ccccc23)c1	-9%
Cc1ccc(-c2sc(C(=O)Nc3ccc(Br)cc3)cc2CC(=O)O)cc1	-2%
CCOC(=O)c1oc2c(c1C)-c1nn(Cc3ccccc3Cl)cc1CC2	-4%
COc1ccccc1N1CCN(CCCNC(=O)c2nnc(Cc3ccc(F)cc3Cl)o2)CC1	6%
Cc1ccc2c(c1)c1c(c(=O)n(Cc3ccccc3)c(=O)n1Cc1ccccc1F)n2C	7%
COc1ccc(-c2cc(C(F)(F)F)nc(SCC(=O)N3CCCCC3)n2)cc1OC	-6%
Cc1cccc(CSc2nc3ccncc3n2Cc2ccc(C(=O)O)cc2)c1	-4%
COc1ccc(Nc2ncc(C(=O)Nc3cccc(Cl)c3)c3ccccc23)cc1	3%
CCOC(=O)N1CCC(NC(=O)c2cnn(-c3ccc(C)cc3)c2-n2cccc2)CC1	3%
Cc1ccc(NC(=O)c2oc3ccc(S(=O)(=O)N4CCCCC4)cc3c2C)cc1C	8%
Cc1ccccc1-c1ncnn1-c1sc2c(c1C#N)CCCCC2	-79%
CCOc1ccc(OCC)c(NC(=O)c2cnc(SC)nc2-c2ccccc2)c1	?

Among those listed so far, 4 contain a tert-butyl group:
SMILES	miR-21 FLuc
COc1ccc(NC(=O)c2cnn(-c3ccc(F)cc3F)c2C2CCN(C(=O)OC(C)(C)C)CC2)cc1Cl	26%
COc1cccc(CN(C(=O)c2ccc(C(C)(C)C)cc2)C2CCS(=O)(=O)C2)c1 (stereo not drawn)	-9%
Cc1c(CC(=O)N2CCCCC2)c(=O)oc2cc3occ(C(C)(C)C)c3cc12	-3%
Cc1cccc(OCC(=O)Nc2nc3c(s2)CC(C(C)(C)C)CC3)c1C (stereo not drawn)	1%

(more compounds)
SMILES	miR-21 FLuc
CC(C)OCCCNC(=O)c1ccc(CSc2nc3cccnc3n2Cc2ccccc2)cc1	4%
CN(C)c1ccc(CNc2nc3ccccc3s2)cc1	-35%
COc1cccc2[nH]c(C(=O)NCc3ccc4c(c3)CCN4C(=O)c3ccc(F)cc3)cc12	?
CCCCOC(=O)c1ccc(NS(=O)(=O)c2c(C)nc3scc(C)n3c2=O)cc1	21%

The list is partial. The share of hits here may be higher or lower than overall.
